VDR inh: inhibitors of human vitamin D receptor; P11473; VDR-SRC2-3 peptide fluorescence polarization, 2 h; Potency, µM, for the others: max response, negative = inhibition, most hits filed as inhibitors; hit rate 0.93% among 400,000; active means well fitted inhibition curve with a large enough effect; inconclusive means small, poorly fitted or top-dose-only effect, or another doubt; inactive means no such curve, though single readings can be large or run the other way; further: series mostly up to about 120 µM
Target sequence (P11473 whole entry, looked up): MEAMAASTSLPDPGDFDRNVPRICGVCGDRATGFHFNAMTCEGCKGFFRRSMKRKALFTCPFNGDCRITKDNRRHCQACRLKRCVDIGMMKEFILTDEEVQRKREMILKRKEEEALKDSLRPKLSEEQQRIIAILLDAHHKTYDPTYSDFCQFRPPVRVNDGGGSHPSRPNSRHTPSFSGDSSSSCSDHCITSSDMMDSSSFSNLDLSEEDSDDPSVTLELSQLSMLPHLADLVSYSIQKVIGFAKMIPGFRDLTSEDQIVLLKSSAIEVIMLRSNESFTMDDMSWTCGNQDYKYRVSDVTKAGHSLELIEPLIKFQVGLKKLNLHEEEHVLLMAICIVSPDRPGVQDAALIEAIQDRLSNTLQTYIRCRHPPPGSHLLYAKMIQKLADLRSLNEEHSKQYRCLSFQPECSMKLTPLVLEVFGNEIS
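Fluorescence polarization assay of small-molecule disruption of VDR binding to coregulator peptide SRC2-3. Compounds and controls pin-transferred, then read after 2 h incubation at ambient room temperature.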
* = called active by the depositor; u = inconclusive; & = joins results of further samples. On the % scale 0 is the no-effect control and ±100 the full control effect; potency means the concentration at half of the fitted maximal effect.

The opening 6 compounds, ahead of the listing:
VDR inh | SMILES
-11% | CC(C)C[C@H](NC(=O)c1nc[nH]c1C(=O)NCC(=O)OC(C)(C)C)C(=O)OC(C)(C)C
19% | CCOc1ccccc1NC(=O)CSc1nnc2[nH]c(=O)cc(C)n12
5% | COc1ccc(CCCc2nnc(SCC(=O)Nc3ccc(C)cc3C)o2)cc1
0% | COc1cc(Cl)c(C)cc1NC(=O)Cn1ncc2c1-c1cc(C)ccc1OC2
-6% | CCc1ccccc1N=C1S/C(=C/c2ccccc2OCC(=O)N2CCOCC2)C(=O)N1C
-14% | COc1cc(/C=N/N=C2/NC(=O)C(CC(=O)O)S2)ccc1OCc1cccc(Cl)c1 (stereo not drawn)

This part in full, previewed entries included:
VDR inh | SMILES
-11% | CC(C)C[C@H](NC(=O)c1nc[nH]c1C(=O)NCC(=O)OC(C)(C)C)C(=O)OC(C)(C)C
19% | CCOc1ccccc1NC(=O)CSc1nnc2[nH]c(=O)cc(C)n12
5% | COc1ccc(CCCc2nnc(SCC(=O)Nc3ccc(C)cc3C)o2)cc1
0% | COc1cc(Cl)c(C)cc1NC(=O)Cn1ncc2c1-c1cc(C)ccc1OC2
-6% | CCc1ccccc1N=C1S/C(=C/c2ccccc2OCC(=O)N2CCOCC2)C(=O)N1C
-14% | COc1cc(/C=N/N=C2/NC(=O)C(CC(=O)O)S2)ccc1OCc1cccc(Cl)c1 (stereo not drawn)
6% | CCOC(=O)N1CCN(C(=O)CSc2nnc(-c3cccc(Cl)c3)o2)CC1
4% | CCOC(=O)CCNC(=O)c1ccccc1Br
14% | Cc1ccc(NC(=O)CN(C)C(=O)CN2C(=O)NC(C)(c3ccccc3)C2=O)cc1 (stereo not drawn)
-2% | O=C(c1ccc2c(c1)N(Cc1ccc(F)cc1)C(=O)c1ccccc1S2=O)N1CCC(Cc2ccccc2)CC1 (stereo not drawn)
-22% | COc1cc(-c2nnco2)cc(OC)c1OC
1% | O=S(=O)(Cc1ccccc1Cl)CC(O)COc1ccccc1Cl (stereo not drawn)
7% | COC(=O)Cc1c(C)nc2nc(-c3ccccc3)[nH]n2c1=O
-5% | Clc1nc(-c2ccccc2)cc(-c2ccc(Br)cc2)n1
-3% | Cc1ccc(C(=O)C(=O)c2ccc(C)c(N)c2)cc1N
5% | COc1ccc(C(CNCC(=O)Nc2ccccc2F)N(C)C)cc1 (stereo not drawn)
-8% | Cc1ccc2nc(/C(C#N)=C/c3ccc(-c4cccc(Cl)c4)o3)[nH]c2c1
2% | COc1ccccc1CC(=O)Nc1ccc(-c2noc(COc3ccc(Br)cc3)n2)cc1
u | Cc1cc(-c2onc3ccc(Cl)cc23)ccc1O
-3% | C=CCOCCN(C)C1=NS(=O)(=O)c2ccccc21
16% | O=C(COC(=O)c1ccccc1O)Nc1ccc(OC(F)F)cc1
-10% | O=C(NC(c1ccccc1)c1ccccc1)C1(c2cccs2)CCOCC1
-8% | O=C(N/N=C/c1cccs1)c1ccc2ccccc2c1
-10% | CC(C)C[C@H](NC(=O)c1[nH]cnc1C(=O)N[C@@H](C)c1ccccc1)C(=O)OC(C)(C)C
12% | CCCOc1ccc(C(=O)N2CCC(c3nc4ccccc4s3)CC2)cc1
-12% | CC(OC(=O)c1ccc(S(=O)(=O)NCc2ccco2)cc1)C(=O)Nc1ccc(Cl)cn1 (stereo not drawn)
-2% | CSc1nnc(NC(=O)C2CCCCC2)s1
3% | CC(=O)c1nn(-c2ccc(Br)cc2)cc1C(=O)c1ccco1
-4% | O=c1ccc(-c2ccc(S(=O)(=O)Nc3ccccc3Cl)o2)n[nH]1
-17%&1% | CCN(Cc1ccccc1)C(=O)CN1C(=O)COc2ccc(S(=O)(=O)N3CCCCCC3)cc21
3% | Cn1nc(CC(=O)Nc2ccc3c(c2)CCC3)c2ccccc2c1=O
-10% | COc1cccc(CN2C(=O)c3ccccc3Sc3ccc(C(=O)NCCc4ccc(C)cc4)cc32)c1
5% | CCCCC(=O)N=c1sc2c(OC)ccc(OC)c2n1C
-5% | CC[C@H](C)NC(=O)CCCCCn1c(=S)[nH]c2c([nH]c3ccc(OC)cc32)c1=O
-16% | O=c1oc2ccccc2c(N2CCN(c3ccccc3F)CC2)c1CN1CCCC1
-9% | O=C(/C=C/c1ccc(Br)o1)Nc1nccs1
-2% | CSc1cccc(CNC(=O)C2CCC(=O)N(CCCN3CCCC3=O)C2)c1 (stereo not drawn)
-2% | COc1ccc(/C(N)=N/OC(=O)c2cccc([N+](=O)[O-])c2C)cc1
-22% | Cc1ccc(N(CN2C(=O)c3ccccc3C2=O)C(=O)c2ccc([N+](=O)[O-])cc2[N+](=O)[O-])cc1
11% | Cc1ccc2c(=O)c(C(=O)c3ccccc3)cn(CC(=O)Nc3ccc4c(c3)OCCO4)c2n1

Taken from above:
CCN(Cc1ccccc1)C(=O)CN1C(=O)COc2ccc(S(=O)(=O)N3CCCCCC3)cc21 in VDR inh shows -17%&1%
O=C(COC(=O)c1ccccc1O)Nc1ccc(OC(F)F)cc1 in VDR inh shows 16%
O=c1oc2ccccc2c(N2CCN(c3ccccc3F)CC2)c1CN1CCCC1 in VDR inh shows -16%
O=C(NC(c1ccccc1)c1ccccc1)C1(c2cccs2)CCOCC1 in VDR inh shows -10%

The listing continues.
VDR inh | SMILES
21% | O=C(CCCOc1ccc(Cl)cc1)Nc1cccc(C(=O)O)c1
-4% | CCOC(=O)c1sc2nccc(N(C)C)c2c1N=CNOCc1ccccc1
-7% | COc1cccc(CNC(=O)c2ccc(NC(=O)CC3SC(N4CCCC4)=NC3=O)cc2)c1 (stereo not drawn)
12% | CN(C)S(=O)(=O)c1ccc(Cl)c(C(=O)NNC(=O)Cn2ccc(C(F)(F)F)n2)c1
-1% | CCN(C(=O)CSc1ccccn1)C1CCCCC1
-13% | O=C(CSc1nnc(CNC(=O)C23CC4CC(CC(C4)C2)C3)n1-c1ccc(F)cc1)Nc1ccccc1
-2% | Brc1ccccc1Cn1c(-c2cscn2)nc2ccccc21
14% | Cc1ccc(C(=O)/C=C2\NCC(C)NC2=O)cc1 (stereo not drawn)
-11% | CC1CCCCC1NC(=O)CSc1nc2ccccc2[nH]1 (stereo not drawn)
-10% | O=C(CSc1ccccc1C(=O)O)NCC1CCCCC1
-13% | C[C@]12CCC3C(CC[C@H]4CCCC[C@]34C)C1CC[C@@]2(O)CNCCO (stereo partly drawn)
6% | N#C/C(=C(\O)c1ccco1)c1ccccn1
-10% | O=S1CCCSC1c1cccnc1 (stereo not drawn)
1% | Cc1ccc(S(=O)(=O)CC(=O)c2cc(C)c(O)c(C)c2)cc1
-4% | COc1ccc(NC2CCCN(C(=O)CCN3CCCO3)C2)cc1 (stereo not drawn)
-6% | CC(=O)Nc1cc2nn(-c3ccccc3)nc2cc1Cl
27% | COc1ccc(NC(=O)c2cccc3c2C(=O)N(C2CCCCC2)C3)cc1
-11% | CCC(=O)Nc1cccc(NC(=O)CSc2nnnn2C)c1
1% | CCCCOc1ccc(OCCNC(=O)c2ccco2)cc1
3% | COc1ccc(OCCCCOc2ccccc2Cl)cc1
-6% | CCC(NC(=O)c1ccccc1O)c1ccccc1 (stereo not drawn)
7% | CCOc1cc(C=O)ccc1OS(=O)(=O)c1ccc(NC(C)=O)cc1
-18% | O=C(Nc1ccccc1Cc1ccccc1)c1ccc2c(c1)SC1=NS(=O)(=O)CCN12
11% | O=C(NCC1OCCc2ccccc21)c1cc(COc2ccc(F)cc2Cl)on1 (stereo not drawn)
4% | COc1ccc(N(CC(=O)Nc2ccc(C)c(F)c2)S(=O)(=O)c2c(C)noc2C)cc1
13% | O=S(=O)(Nc1cccc(S(=O)(=O)N2CCCCCC2)c1)c1ccccc1
7% | Cn1c(=O)n(C)c2cc(NC(=O)CSc3nnc(-c4ccccc4O)n3-c3ccccc3)ccc21
30% | Cc1onc(-c2ccccc2)c1NC(=O)N(CCC#N)Cc1ccccc1
-6% | COc1ccc(/C=C2\SC(=O)N(CCc3nnc(N)s3)C2=O)cc1
-10% | Cc1ccc(Cl)cc1N1CCN(S(=O)(=O)c2c(C)[nH]c(=O)[nH]c2=O)CC1
-12% | Cc1ccc(S(=O)(=O)N/N=C/c2c(C)nn(-c3ccccc3)c2C)cc1
15% | CCCCC/C=C\C/C=C\C/C=C\CCCCCCC(=O)NCCc1ccc(O)c(O)c1
10% | CCN(CCO)c1ncnc2onc(-c3ccc(F)cc3)c12
4% | COc1ccc(CNc2nc(-c3ccco3)nn2S(=O)(=O)c2ccc(Cl)cc2)cc1OC
-15% | O=C(COC(=O)/C=C/c1cccc(C(F)(F)F)c1)NC(=O)NCc1ccccc1
-2% | Cc1ccc(S(=O)(=O)c2nc(-c3ccc(F)cc3)oc2N2CCN(c3ccccc3)CC2)cc1
-6% | CC(C)(C)C(=O)Nc1ccc(-c2nc3ccc(NC(=O)C(C)(C)C)cc3[nH]2)cc1
-1% | COc1ccccc1NC(=O)NNC(=O)c1ccc2c(c1)NC(=O)C(C)(C)O2
15% | CCOC(=O)c1c(CN(C)C)n(C)c2ccc(OC(C)=O)cc12
-1% | CCCCN(C)S(=O)(=O)c1c(C)[nH]c(=O)[nH]c1=O
7% | Cc1cc(C)c(NC(=O)Nc2ccccc2)c(Cl)c1
-16% | CCN(Cc1ccncc1)Cc1c(O)ccc2cc(Br)ccc12
-2% | CCCCN(CCCC)c1nc(-c2ccccc2)nc2ccccc12
-19% | C[C@@H]1O[C@@H](OC[C@H]2O[C@@H](Oc3cc(O)c4c(=O)cc(-c5ccc(O)c(O)c5)oc4c3)[C@H](O)[C@@H](O)[C@@H]2O)[C@H](O)[C@H](O)[C@H]1O
-3% | COc1cc(/C=N/NC(=O)c2nnn(-c3nonc3N)c2C(C)C)ccc1OCc1ccc(F)cc1
3% | FC(F)(F)c1cc(C(F)(F)F)c2ccc(N3CCN(c4ncccn4)CC3)nc2n1
0% | CNc1nc(N)nc(-c2cc(Cl)ccc2OC)n1
9% | CCOC(=O)c1sc(N(C)C)nc1-c1ccccc1
-23% | O=C(O)CCc1ccccc1OC(=O)c1ccccc1
0% | CN(CC1CCCO1)S(=O)(=O)c1ccc(C(=O)Nc2nc(-c3ccccn3)cs2)cc1 (stereo not drawn)
2% | O=C(NCCCn1ccnc1)c1cc(-c2cccc(O)c2)on1
11% | Cc1ccccc1NC(=O)c1ocnc1C
11% | O=C(Nc1cccc(Br)c1)/C(=C\c1cccnc1)NC(=O)c1ccco1
-27% | Cc1cc(C)cc(NC2=CC(c3cccc(F)c3)N(c3cc(C)cc(C)c3)C2=O)c1 (stereo not drawn)
3% | COc1ccc(NC(=O)c2cccnc2)c(OC)c1
0% | CN(c1ccccc1)S(=O)(=O)c1cc(C(=O)Nc2ccccc2N2CCOCC2)ccc1Cl
-10% | Cc1cc(C)c(C)c(S(=O)(=O)NC(C)C(=O)O)c1C (stereo not drawn)
6% | O=C(O)C1CCCN1C(=O)c1cncc(Br)c1 (stereo not drawn)
45µM* | Cc1ccc(C(c2cc(Cl)c3cccnc3c2O)N2CCN(C)CC2)cc1 (stereo not drawn)
10% | COC(=O)c1ccccc1NC(=S)NC(=O)CC(C)C

Next section:
VDR inh | SMILES
-13% | CC(=O)c1ccc(N2CCc3ccccc3C2)c([N+](=O)[O-])c1
-8% | CCc1ccc(NC(=O)C(=O)NCC(c2cccnc2)N2CCN(Cc3ccccc3)CC2)cc1 (stereo not drawn)
-21% | CCOC=C1C(=O)N(C(C)=O)c2cc(OC)c(OC)cc21
-9% | COCCCNC(=O)c1sc2ncnc(N3CCc4ccccc4C3)c2c1C
5% | Cc1ccc(Cn2c(C(=O)O)c(CNCc3ccccc3Cl)c3ccc(C)cc32)cc1
-1% | O=C(Cn1ncc(N2CCCC2)c(Br)c1=O)c1ccc(Cl)cc1
1% | O=C(Cc1cccs1)NNC(=S)NC(=O)c1ccco1
-20% | CN(C)S(=O)(=O)c1ccc(N2CCCC2)c(C(=O)Nc2nc(-c3cc(F)ccc3F)cs2)c1
6% | COc1ccccc1OCC(=O)Nc1ccccc1C(=O)N1CCCC1
1% | O=C(NNC(=O)C1CCN(C(=O)Nc2ccccc2)CC1)c1ccc(F)cc1
-5% | Cc1ccccc1CNC(=O)C1CCCN(c2nnc(-n3c(C)ccc3C)s2)C1 (stereo not drawn)
40µM* | c1ccc(C[n+]2csc3ccccc32)cc1
-14% | S=c1[nH]nc(-c2ccco2)n1/N=C/c1ccc(Br)s1
u | CCOC(=O)C1CCCN(C(=O)c2cc(-c3ccco3)nc3ccccc23)C1 (stereo not drawn)
19% | COc1ccc2oc(C(=O)OCC(=O)NC3CCCC3)c(C)c2c1
-7% | C(=N\N=C\c1cccs1)/c1cccs1
-26% | COc1cccc(C2c3c(oc4ccc(F)cc4c3=O)C(=O)N2CCCN2CCOCC2)c1 (stereo not drawn)
-13% | CCCCc1ccc(NC(=O)COCC)cc1
13% | CCc1ccccc1N1CC(C(=O)Nc2cc(S(=O)(=O)N3CCCC3)ccc2Cl)CC1=O (stereo not drawn)
13% | CC1=C(c2ccc(F)cc2)S(=O)(=O)N=C1N1CCC(C(=O)NCCc2ccco2)CC1
-15% | CN(CC(=O)Nc1ccccc1C(F)(F)F)C(=O)CSc1nc(N)cc(N)n1
-15% | CC(=O)Nc1ccc(SCC(c2ccccc2)N2CCN(CCc3ccccc3)CCC2=O)cc1 (stereo not drawn)
-5% | Cc1ccsc1C(=O)NC(C)c1ccc2c(c1)OCO2 (stereo not drawn)
-5% | NC(=O)C1CCCN(C(=O)c2cccc(S(=O)(=O)N3CCCCCC3)c2)C1 (stereo not drawn)
7% | COc1ccc(CN2C(=O)C(NC(=O)c3cccc(C)c3)(C(F)(F)F)N=C2c2ccccc2)cc1 (stereo not drawn)
u | O=C(O)C(S)C(S)C(=O)O (stereo not drawn)

Two entries drawn at random from those above:
VDR inh | SMILES
7% | COc1ccc(CN2C(=O)C(NC(=O)c3cccc(C)c3)(C(F)(F)F)N=C2c2ccccc2)cc1 (stereo not drawn)
4% | CCOC(=O)CCNC(=O)c1ccccc1Br

Filtered by structure, the compounds so far with a nitro group on carbon.
VDR inh | SMILES
-2% | COc1ccc(/C(N)=N/OC(=O)c2cccc([N+](=O)[O-])c2C)cc1
-22% | Cc1ccc(N(CN2C(=O)c3ccccc3C2=O)C(=O)c2ccc([N+](=O)[O-])cc2[N+](=O)[O-])cc1
-13% | CC(=O)c1ccc(N2CCc3ccccc3C2)c([N+](=O)[O-])c1

Only part of the results is shown; count on the stated rates, not on these rows.
